# Screening data deposited in PubChem by National Center for Advancing Translational Sciences (NCATS).
# Sfp inh: qHTS Assay for Inhibitors of Bacillus subtilis Sfp phosphopantetheinyl transferase (PPTase); 4'-phosphopantetheinyl transferase ffp (Bacillus subtilis), Q9F4F7; Biochemical Sfp PPTase activity, qHTS; Potency, µM, without a hit: max response, negative = inhibition, usual class: inhibitors; actives 3.5% (n = 310,000); active = well fitted inhibition curve with a large enough effect; inconclusive = small, poorly fitted or top-dose-only effect, or another doubt; inactive = no such curve, though single readings can be large or run the other way;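 note: the enzyme is Sfp with the accession as filed and its product quenches rhodamine fluorescence; potency is the fitted concentration of half-maximal effect; 0% = enzyme reaction without inhibitor and -100% = no enzyme wells; top concentration of the series not given in the record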
#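 Reaction rates are the 30-min fluorescence difference (ex 525, em 598 nm) in wells containing 15 nM Sfp, 5 uM rhodamine-CoA and 12.5 uM BHQ-2-YbbR at pH 7.6 with 10 mM MgCl2.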
# Menin MLL FP FL: qHTS Assay for Inhibitors Targeting the Menin-MLL Interaction in MLL Related Leukemias: Competition With Fluorescein Labeled MLL-derived Peptide | 290,000 tested, under 10 active | Fluorescence polarization, fluorescein-MLL peptide displacement from menin | FP activity change, % at 61.4 µM; inconclusive = falling polarisation curve, or a change in total fluorescence; inactive = total fluorescence flat and polarisation flat or rising; no compound was filed as active; the % refers to the polarisation; negative = inhibition;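 note: % of control where 0% means no effect; inhibitors lower the polarisation; unlabelled MLL peptide was the positive control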
# ClpP mod: qHTS Assay for Activators of ClpP | ATP-dependent Clp protease proteolytic subunit (Bacillus subtilis (strain 168)), P80244 | purified B. subtilis ClpP, FRET peptide cleavage, 20 min | Potency, µM (top dose mostly 57.5 µM), without a hit: at the highest dose activity change, negative = active | actives 1.9% (n = 340,000) | AID 651965, 2013; active = well fitted falling curve with a large enough effect; inconclusive = small, poorly fitted or top-dose-only effect; inactive = no such curve, though single readings can be large or run the other way; note: potency is the fitted concentration of half-maximal effect; the source files actives as falling curves though it sought activators and does not explain the sign; nearly all actives have a fitted effect of over 65% in size; many hits overshoot -100%
# Target sequence (P80244 whole entry, looked up): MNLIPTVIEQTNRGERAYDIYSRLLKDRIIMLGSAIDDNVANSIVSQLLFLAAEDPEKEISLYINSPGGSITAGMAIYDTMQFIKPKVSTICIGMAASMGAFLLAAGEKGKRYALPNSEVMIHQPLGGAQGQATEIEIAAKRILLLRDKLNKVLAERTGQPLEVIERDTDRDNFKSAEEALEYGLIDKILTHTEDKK
#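 ClpP 10 microg/mL final, pH 8 Tris/KCl buffer with BSA, glycerol, Tween-20; compound pinned in; FRET-FV substrate; RT 20 min; Ex320/Em430; ΔFRET vs ADEP 5.8 microM, DMSO, no enzyme.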
# gsp ag: qHTS for Agonist of gsp, the Etiologic Mutation Responsible for Fibrous Dysplasia/McCune-Albright Syndrome: qHTS | gsp mutant cells, cAMP HTRF, 30 min; control for the full effect not named in the record | Potency, µM (highest dose often 76.9 µM), inactives show top-dose activation (cAMP increase), usual class: activators | actives 0.13% (n = 340,000) | AID 624287, 2012; active = well fitted activation curve with a large enough effect; inconclusive = small, poorly fitted or top-dose-only effect, or another doubt; inactive = no such curve, though single readings can be large or run the other way; cell line not stated here;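 note: phosphodiesterase inhibitor Ro 20-1724 added with compounds to block cAMP breakdown; potency is the fitted concentration of half-maximal effect; nearly all actives have a fitted effect of over 60% in size; about a fifth of the inactives were tested at one dose only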
#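 Cells stably selected in G418 were plated at 2000/well, grown 16-24 hr, then given compounds in DMSO with the PDE inhibitor […] (300 uM solution added) for 30 min at 37C; cAMP was read by HTRF.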
# gsp antagonist: qHTS for Antagonists of gsp, the Etiologic Mutation Responsible for Fibrous Dysplasia/McCune-Albright Syndrome: qHTS. actives 0.4% (n = 340,000). gsp-mutant cells, cAMP HTRF, 30 min; control for the full effect not named in the record. AID 624288, 2012. Potency, µM (series often up to 76.9 µM), inactives show at the top dose activity change, negative = inhibition, usual class: inhibitors; active = falling curve of any shape with a large fitted effect; inconclusive = falling curve, mostly with a smaller effect; inactive = flat or rising curve; cell line not stated here;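 note: intracellular cAMP measured with PDE inhibitor Ro 20-1724 present during compound exposure; potency is the fitted concentration of half-maximal effect; % is set by controls: 0 for no effect and ±100 for the full control effect; nearly all actives have a fitted effect of over 65% in size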
#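 G418-selected cells were plated in DMEM/10% FBS for 16-24 h at 37C, then treated with compounds plus the PDE inhibitor […] (300 uM solution added) for 30 min at 37C. Intracellular cAMP was measured by HTRF after 30 min lysis at room temperature.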
# D2 ag: Beta-Arrestin HTS for Positive Allosteric Modulators of the Human D2 Dopamine Receptor: Agonists; D(2) dopamine receptor (Homo sapiens), P14416; DiscoveRx PathHunter D2 beta-arrestin, luminescence, 90 min; 100% = 57 uM dopamine signal; activation, % (no concentration beside the values); actives 0.084% (n = 360,000); AID 624465, 2012; in the data active = activation above about 40%; inconclusive = about 15% to 40%; inactive = below about 15%; note: compound concentration not given in the record; the text of the record calls up to 30% inactive
# Target sequence (P14416 whole entry, looked up): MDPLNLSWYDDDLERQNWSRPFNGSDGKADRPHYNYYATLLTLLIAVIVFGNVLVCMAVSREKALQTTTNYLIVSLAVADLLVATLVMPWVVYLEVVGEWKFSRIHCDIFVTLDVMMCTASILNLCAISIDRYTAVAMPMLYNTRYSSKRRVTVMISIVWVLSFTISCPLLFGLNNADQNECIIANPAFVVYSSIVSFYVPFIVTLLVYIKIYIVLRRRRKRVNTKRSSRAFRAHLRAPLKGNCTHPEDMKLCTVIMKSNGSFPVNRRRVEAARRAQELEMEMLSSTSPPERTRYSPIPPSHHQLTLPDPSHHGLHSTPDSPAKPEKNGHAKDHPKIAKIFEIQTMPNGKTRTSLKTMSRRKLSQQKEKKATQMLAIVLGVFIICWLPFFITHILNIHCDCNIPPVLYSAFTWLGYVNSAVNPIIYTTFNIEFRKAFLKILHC
#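 Agonist mode: compounds alone added to overnight-plated D2 PathHunter cells for 90 min at 37 C, with 57 uM final dopamine (EC100) defining full response. Beta-arrestin recruitment detected by chemiluminescent reagent, read after 1 h at ambient temperature.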
# PINK1 modulator: A Quantitative High throughput Screen to Identify Chemical Modulators of PINK1 Expression | Potency, µM (doses to about 76.6 µM), inactives show top-dose activation (PINK1 increase), hits mostly activators | PINK1 immunofluorescence, high-content cytometry, 24 h | actives 0.2% (n = 410,000); active = well fitted activation curve with a large enough effect; inconclusive = small, poorly fitted or top-dose-only effect; inactive = flat fitted curve, though single readings scatter; cell line not stated here;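 note: potency is the fitted concentration of half-maximal effect; % of control where 0% means no effect; nearly all actives have a fitted effect of over 65% in size; a mitochondrial uncoupler was the plate control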
#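 PINK1 protein, normally rapidly degraded, was detected by immunofluorescence after 24 hour compound treatment of a stable cell line. Titration data (5 concentrations) came from laser-scanning cytometry, with CCCP-treated wells as controls.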
# * = called active by the depositor; ? = inconclusive; / = not tested or not shown; [ ] = dose if it differs, or a comment.
structure	Sfp inh	Menin MLL FP FL	ClpP mod	gsp ag	gsp antagonist	D2 ag	PINK1 modulator
Cc1cnnn1-c1cccc([N+](=O)[O-])c1	-13%	-0.5	/	-6%[15.4 µM]	10%	-3.9	2.7%
CCOc1ccc(-n2nc3c(=O)[nH]nc(C)c3c2C)cc1	10%	3.3	/	2%[15.4 µM]	1%	-5.3	-0.5%
CC1CC(C)CN(CCOCCSc2ccc(Cl)cc2)C1 (centres undefined)	56µM*	2.8	/	?	2%	0.8	5.0%
NC(=O)COc1cccc2cccnc12	6%	-2.1	-12%	-4%	-4%	-2.4	2.9%[38.3 µM]
Cc1cc2oc(=O)cc(CN(C)Cc3ccc(OC(F)F)cc3)c2cc1Cl	-5%	-3.7	/	7%[15.4 µM]	-15%	-4.8	2.1%
COc1cccc(-n2ccnc2SCC(=O)N2CCc3ccccc32)c1	21%	4.2	-1.3%	-40%	-1%	-3.2	-3.1%
COc1ccc2c(c1)C(C)=CC(C)(C)N2C(=O)Nc1ccccc1	1%	-2.1	28µM*	-7%	1%	13	-1.1%
O=C(Nc1cccc(F)c1)NC1(C(=O)N2CCN3CCCC3C2)CCCCC1 (centres undefined)	9%	1.3	-2.0%	-78%[inhibitor]	-8%	-2.9	-0.4%
Cc1cc(OCC(=O)Nc2ccc(CN3CCOCC3)cc2)ccc1Cl	-12%	/	-0.3%	12%	-5%	4.5	-0.1%
Cc1cc(NC(=O)CCN2CCN(Cc3ccccc3)CC2)ccc1Br	-6%	7.8	-1.1%	-4%[15.4 µM]	23%	-0.9	-0.5%
O=C(N=Nc1c(O)[nH]c2ccccc12)c1cccc(S(=O)(=O)N2CCCCC2)c1	1%	0.5	1.3%	11%	3%	-1.8	16%
CCCN(C(=O)Cc1csc(-c2ccccc2)n1)C1CCS(=O)(=O)C1 (centres undefined)	/	/	-5.6%	-2%	1%	-2.0	-0.5%
O=C(Oc1ccc(-c2nnco2)cc1)N1CCCCC1	-2%	3.0	0.1%	2%	10%	-2.1	-0.5%
Cc1ccccc1OCCSCc1nc2ccccc2[nH]1	-4%	2.8	-2.0%	-6%	-16%	-5.6	?
COc1ccc(NC(=O)CSc2ccc3nnc(-c4ccccn4)n3n2)c(OC)c1	10%	/	-1.8%	26%	10%	-1.0	0.3%
CC(C)(C)OC(=O)N/N=C/c1ccc(C(=O)O)cc1	-4%	-1.1	1.2%	2%	6%	-4.4	2.3%
COc1ccc(C2/C(=C(/O)c3ccccc3)C(=O)C(=O)N2CO)cc1 (centres undefined)	2%	2.3	-0.1%	14%	-1%	-1.0	0.2%
COc1ccccc1-c1nc(NCCN2CCOCC2)c2ccccc2n1	?	-6.0	/	/	/	/	-0.3%
CC(Cc1cccnc1)NC(=O)c1cc(COc2c(F)cccc2F)on1 (centres undefined)	1%	/	-0.5%	1%	3%	0.8	0.9%
CCOc1ccc(S(=O)(=O)N2CCC(C(=O)OC(C)C(=O)N3CCOCC3)CC2)cc1 (centres undefined)	/	/	-0.4%	-10%	10%	-1.6	0.5%
COc1cccc(N2CCN(CC(=O)NC(=O)NC3CCCCC3)CC2)c1	/	/	0.7%	-5%[15.4 µM]	9%	-1.2	0.6%
CC1CN(S(=O)(=O)c2cccc(C(=O)N3CCC(C(N)=O)CC3)c2)CC(C)O1 (centres undefined)	/	/	-2.1%	-6%[15.4 µM]	7%	-3.8	-1.0%
COc1ccc(CC(NC(C)=O)C(=O)NC2CCN(S(=O)(=O)c3ccccc3)CC2)c(OC)c1 (centres undefined)	8%	-7.5	/	-7%[15.4 µM]	11%	-2.2	0.3%
CCC1CCCCN1C(=O)CSc1nnc(-c2c[nH]c3ccccc23)o1 (centres undefined)	4%	2.3	-2.4%	-5%	-17%	-0.9	4.5%[38.3 µM]
C=CCn1c(C)cc(C(=O)Cn2nc(C(=O)O)c3ccccc3c2=O)c1C	9%	0.4	-1.1%	13%	5%	-0.6	1.4%
CCCn1cc(NC(=O)c2cc(-c3ccccc3)on2)cn1	10%	2.9	0.0%	5%	2%	0.6	12%[38.3 µM]
COc1ccc(C(=O)Nc2c3c(nn2C(C)(C)C)CS(=O)(=O)C3)cc1OC	12%	/	-0.6%	6%[15.4 µM]	3%	-4.2	0.4%
CCC(C)c1ccccc1NC(=O)COC(=O)c1ccc(N2CCCC2)c([N+](=O)[O-])c1 (centres undefined)	-10%	1.3	-0.8%	-13%	1%	-0.1	4.0%
CCCCC(=O)Nc1nc2ccc(C(=O)OC)cc2s1	8%	-5.0	10%	-67%[inhibitor]	4%	2.0	1.5%
Cc1nn2cc(-c3ccc(Cl)cc3)cnc2c1Cl	5%	-0.6	-3.2%	-12%[15.4 µM]	2%	-0.9	0.3%
COc1ccccc1N(CC(=O)NC1CCCC1)S(=O)(=O)c1ccc(C)cc1	-6%	-1.5	/	0%[15.4 µM]	-7%	0.3	0.8%
CCOc1cc(C)c(Cl)cc1S(=O)(=O)NCc1ccco1	-30%	4.5	-1.5%	12%	0%	-2.0	-1.2%
COCc1cc(C)nc(OCC(=O)N/N=C/c2ccco2)c1C#N	27%	2.4	14µM*	0%	5%	-3.0	-1.5%
CCOC(=O)C1=C(SCC(=O)Nc2ccccc2)NC(=O)C(C#N)C12CCCCC2 (centres undefined)	24%	2.0	?	-46%	-12%	-1.6	-0.7%
Cc1ccc(C(O)(CNCc2ccccc2)c2ccccc2)cc1 (centres undefined)	8%	1.4	0.8%	2%	-4%	4.0	11%
O=C(Nc1ccccc1N1CCCC1)c1ccc2c(c1)OCO2	0%	3.4	-2.5%	-15%	-8%	-2.7	-2.6%
C/C(=N\NC(=O)c1ccc2c(c1)OCO2)c1ccc(O)cc1	11%	4.0	0.2%	?	-1%	-8.0	2.5%
C/C(=N\OC(=O)c1ccc(OC(C)C)cc1)c1ccc(C)c(C)c1	?	0.4	0.3%	-12%	-26%	-1.5	1.4%
O=S(=O)(c1cc(Cl)ccc1Cl)N1CCNCC1	11%	0.6	-0.5%	-19%	4%	-3.0	-9.7%[38.3 µM]
Cc1ccc(C(=O)N/C(=C\c2ccco2)C(=O)N2CC(C)OC(C)C2)cc1C (centres undefined)	-8%	/	1.2%	22%	11%	-3.6	-0.6%
O=C(OCC(=O)N1CCN(C(=O)c2ccco2)CC1)c1ccc(S(=O)(=O)N2CCCCC2)cc1	-1%	0.6	-3.2%	-32%[inhibitor]	-8%	0.7	0.9%
CN(C)c1ccc(CC(=O)N2CCCCC2c2cc(C(=O)Nc3cccc4c3CCCC4)no2)cc1 (centres undefined)	/	/	-1.1%	/	/	1.9	-0.5%
O=C(CSCCc1ccccn1)Nc1cccnc1	-3%	0.4	-1.7%	-8%	2%	-0.4	-1.4%
COC(=O)CCc1sc(Nc2ccc(Br)cc2)nc1-c1ccc(OC)cc1	-3%	1.5	-2.9%	12%	-9%	0.2	1.0%
CCOc1ccccc1CN1CCC(n2nccc2NC(=O)C2CCCC2)CC1	8%	/	1.5%	-31%[inhibitor]	-1%	-3.1	-0.1%
O=[N+]([O-])c1cccc(N(CC(O)CN2CCCCC2)S(=O)(=O)c2ccccc2)c1 (centres undefined)	-4%	-1.8	/	-6%[15.4 µM]	6%	-2.5	-0.1%
CC(=O)Oc1ccc(-c2cccc(C(=O)NCCCO)c2)cc1	4%	5.7	-2.5%	7%[15.4 µM]	-1%	-0.1	1.2%
Cc1nn(-c2ccc(F)cc2)c(Cl)c1C(=O)NCC1CCCO1 (centres undefined)	/	/	-3.7%	12%	1%	0.5	0.8%
CCc1c(C)sc2nc3c(C(=O)N4CCOCC4)cc(C(=O)c4ccccc4O)cn3c(=O)c12	4%	?	/	3%	?	-0.7	0.2%
COc1ccc(CCNC(=O)CNCC(c2ccccc2)N(C)C)cc1OC (centres undefined)	?	-8.9	2.0%	-20%	12%	7.0	0.6%
CCN1C(=O)/C(=C2\SC(=S)N(NC(=O)c3ccccc3O)C2=O)c2ccccc21	-21%	1.6	/	-2%[15.4 µM]	?	-0.1	2.4%
Cn1c(=O)c(-c2cccc(F)c2)nc2cncnc21	15%	9.9	/	/	/	/	1.5%
CC1(C)Oc2ccc(C(=O)NC3CCCC3)cc2N(CC(=O)N2CCOCC2)C1=O	8%	-1.2	-0.4%	11%	2%	-0.8	0.7%
O=C1CCCC(O)=C1C=Nc1cccc(C(F)(F)F)c1	9%	-1.4	0.5%	?	-21%	3.0	0.0%
CCOC(=O)N1CCC(NC(=O)C2CCCN(Cc3nc(-c4cccc(Cl)c4)oc3C)C2)CC1 (centres undefined)	-5%	1.5	-0.3%	-36%[inhibitor]	-18%	-1.6	-1.2%
COc1ccccc1C(=O)O/N=C(/c1ccncc1)c1ccc([N+](=O)[O-])cc1	-9%	0.5	3.8%	2%	-12%	?	-1.9%
OCC[C@@H]1C[C@H](O)[C@@H](O)[C@@]2(OCCCc3cc(Cl)ccc32)O1	/	/	-1.2%	/	/	-4.2	0.3%
